Assay outcomes: PubChem, National Center for Advancing Translational Sciences (NCATS)
TRPV1 potentiator – potentiators of human vanilloid receptor 1 (TRPV1). potentiation, % at 8.33 µM. Q8NER1. AID 540277. TRPV1-expressing cells, Fluo-8 calcium influx, capsaicin EC20 potentiation; host cell line not named in the record; control for the full effect not named in the record. 320,000 compounds, 0.02% hits; active means potentiation above 80%; inconclusive means 30% to 80%; inactive means below 30%; also: 0% is about no effect
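Cells expressing TRPV1 were dye-loaded with Fluo-8 and read kinetically: 10 s baseline, 3 min after compound (agonist portion), then 2 min after EC20 capsaicin (allosteric enhancer portion). Calcium-bound dye fluorescence at 480/520 nm.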
TRPML1 inh – blocks the human TRPML1 channel | Q9GZU1 | TRPML1-inducible cells, Ca2+ dye fluorescence, FDSS; stronger effect = lower value; inhibition of EC80 agonist-evoked calcium signal | activity change, negative = inhibition, % (test concentration not listed) | 390,000 compounds, 0.02% hits | AID 624415; in the data active means activity change below about -50%; inconclusive means about -30% to -50%; inactive means above about -30%;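 also: stimulus is agonist 54-4 at its EC80 concentration; % is scaled to controls: 0 for no effect and ±100 for the full control effect; compound concentration not given in the record; the text of the record puts the active cut at -80%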
Target sequence (Q9GZU1 whole entry, looked up): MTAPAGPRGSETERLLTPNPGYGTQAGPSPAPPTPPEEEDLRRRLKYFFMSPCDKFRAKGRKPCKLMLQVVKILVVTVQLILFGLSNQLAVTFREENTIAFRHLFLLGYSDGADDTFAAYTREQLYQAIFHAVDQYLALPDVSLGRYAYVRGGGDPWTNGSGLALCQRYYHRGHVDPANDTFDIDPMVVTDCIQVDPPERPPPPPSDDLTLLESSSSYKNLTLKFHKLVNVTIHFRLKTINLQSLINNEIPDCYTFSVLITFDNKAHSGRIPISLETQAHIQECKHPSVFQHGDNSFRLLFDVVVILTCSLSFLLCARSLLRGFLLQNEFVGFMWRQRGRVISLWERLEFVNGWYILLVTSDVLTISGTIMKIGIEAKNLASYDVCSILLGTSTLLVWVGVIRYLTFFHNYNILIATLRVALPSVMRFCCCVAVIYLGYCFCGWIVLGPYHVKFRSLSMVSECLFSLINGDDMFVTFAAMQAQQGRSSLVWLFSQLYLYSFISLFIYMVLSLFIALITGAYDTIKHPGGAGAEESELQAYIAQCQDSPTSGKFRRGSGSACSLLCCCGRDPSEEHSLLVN
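TRPML1-DL cells, Tet-induced overnight (~16 h, 37 °C) at 1,500 cells/well, were loaded with Ca8 no-wash dye plus quencher for 45-90 min at room temperature. Compounds were pinned during FDSS kinetic reading; agonist 54-4 at EC80 (4 uM final) then added.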
Menin-MLL FL inh – displaces fluorescein MLL peptide from human menin. Fluorescence polarization, fluorescein-MLL peptide displacement from menin. FP activity change, % at 61.4 µM. 290,000 tested, under 10 active. AID 1766; inconclusive = falling polarisation curve, or a change in total fluorescence; inactive = total fluorescence flat and polarisation flat or rising; no compound was filed as active; the % refers to the polarisation; negative = inhibition;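 also: % of control where 0% means no effect; inhibitors lower the polarisation; unlabelled MLL peptide was the positive control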
ClpP mod – qHTS Assay for Activators of ClpP; 340,000 compounds, 1.9% hits; purified B. subtilis ClpP, FRET peptide cleavage, 20 min; ATP-dependent Clp protease proteolytic subunit (Bacillus subtilis (strain 168)), P80244; AID 651965, 2013; Potency, µM (doses to about 57.5 µM), for the others: at the top dose activity change, negative = active; active = well fitted falling curve with a large enough effect; inconclusive = small, poorly fitted or top-dose-only effect; inactive = no such curve, though single readings can be large or run the other way; also: potency is read from the fitted curve at half-maximal effect; the source files actives as falling curves though it sought activators and does not explain the sign; nearly all actives have a fitted effect of over 65% in size; many hits overshoot -100%
Target sequence (P80244 whole entry, looked up): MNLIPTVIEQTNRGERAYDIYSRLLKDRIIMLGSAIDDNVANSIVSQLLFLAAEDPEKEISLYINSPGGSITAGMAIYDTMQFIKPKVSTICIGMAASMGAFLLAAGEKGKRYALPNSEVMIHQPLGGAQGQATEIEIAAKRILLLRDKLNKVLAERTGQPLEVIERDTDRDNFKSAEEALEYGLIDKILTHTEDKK
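Buffer: 100 mM Tris/HCl pH8, 100 mM KCl, 0.05% low protease BSA, 2.5% glycerol, 0.01% Tween-20. ClpP 10 microg/mL final; 20 min RT; delta FRET normalized to ADEP and DMSO controls.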
Sfp PPTase inh – Sfp phosphopantetheinyl transferase inhibition | Biochemical Sfp PPTase activity, qHTS | Potency, µM, without a hit: max response, negative = inhibition, actives largely listed as inhibitors | Q9F4F7 | 310,000 compounds, 3.5% hits | AID 1490; active = well fitted inhibition curve with a large enough effect; inconclusive = small, poorly fitted or top-dose-only effect, or another doubt; inactive = no such curve, though single readings can be large or run the other way;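 also: the enzyme is Sfp with the accession as filed and its product quenches rhodamine fluorescence; potency is read from the fitted curve at half-maximal effect; 0% = enzyme reaction without inhibitor and -100% = no enzyme wells; top concentration of the series not given in the record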
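After 15 min at room temperature with compound, 15 nM Sfp received 5 uM rhodamine-CoA plus 12.5 uM BHQ-2-ybbR (50 mM Hepes pH 7.6, 10 mM MgCl2). Rate came from the fluorescence difference over 30 min, ex 525/em 598 nm.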
PINK1 expr mod – modulators of PINK1 expression | PINK1 immunofluorescence, high-content cytometry, 24 h | Potency, µM (doses to about 76.6 µM), for inactives: at the highest dose activation (PINK1 increase), hits mostly activators | 410,000 compounds, 0.2% hits; active = well fitted activation curve with a large enough effect; inconclusive = small, poorly fitted or top-dose-only effect; inactive = flat fitted curve, though single readings scatter; cell line not stated here;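 also: potency is read from the fitted curve at half-maximal effect; % of control where 0% means no effect; nearly all actives have a fitted effect of over 65% in size; a mitochondrial uncoupler was the plate control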
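Fluorescence from anti-PINK1 antibody, together with nuclear and cell stains, was scanned on a laser-scanning cytometer. Before staining, stable-line cells were incubated 24 hours with compounds at 5 concentrations; primary antibody 12 h at 10 degrees C.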
TRPML1 ag – activates the human TRPML1 channel; Q9GZU1; TRPML1-expressing cells, Ca2+ dye fluorescence, FDSS; host cell line not named in the record; reference of the full effect not given here; activation, % (test concentration not listed); 410,000 compounds, 0.12% hits; AID 624414; in the data active = activation above about 50%; inconclusive = about 30% to 50%; inactive = below about 30%; also: 0% is about no effect; the text of the record puts the active cut at 80%
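Kinetic FDSS Ca2+ read in Tet-induced TRPML1-DL cells (ABD Ca8 dye plus quencher, 45-90 min RT loading): baseline, then compound, then 110 s agonist window; EC80 agonist 54-4 at 4uM final added afterwards for a 110 s antagonist window.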
An asterisk follows results filed as active; ? = inconclusive; nt = no result given; & = joins results of further samples; [ ] = remark or other dose.

SMILES	TRPV1 potentiator	TRPML1 inh	Menin-MLL FL inh	ClpP mod	Sfp PPTase inh	PINK1 expr mod	TRPML1 ag
CN(C)S(=O)(=O)N1CCC(Oc2cccc(C(=O)NCCC3=CCCCC3)c2)CC1	-9	-11	2.3	25µM*	2%	1.2%	3.3
CN(C)S(=O)(=O)c1cccc(NC(=O)CSc2nncn2C)c1	4	1	-1.1	nt	15%	1.2%	1.2
Clc1cccc(CSc2ccc(-c3cccnc3)nn2)c1	-7	6	4.0	nt	6%	0.3%	0.2
CCCSc1ncc(Cl)c(C(=O)Nc2ccc(S(=O)(=O)N(C)c3ccccc3)cc2)n1	nt	-14	nt	-9.5%	nt	1.8%	0.1
CC(C)CCNC(=O)c1ccc2c(c1)N(Cc1ccccc1)C(=O)CS2=O (stereo not drawn)	7	-4	1.5	-1.3%	19%	0.7%	0.6
COC(=O)c1ccccc1NC(=O)N1CSC[C@H]1C(=O)OC	-16	-9	-0.6	3.0%	-23%	-0.5%	-0.3
COc1ccc(NC(=O)N2CCN3CCCCC3C2)cc1OC (stereo not drawn)	nt	-51*	nt	2.5%	nt	0.6%	0.8
Cc1cccc(NC(=O)C2CCN(S(=O)(=O)c3c(C)c(C)cc(C)c3C)CC2)n1	-3	9	nt	0.6%	nt	-5.8%	0.6
OCC1(Cc2ccccc2)CCN(Cc2cnc(-c3cccc4ccccc34)nc2)CC1	6	-5	-3.3	nt	-1%	2.6%	0.1
Cc1cc(-c2nn(-c3ccccc3F)cc2CN(C)CC(O)CO)c(C)s1 (stereo not drawn)	-4	12	1.8	1.3%	-10%	1.3%	0.3
COc1ccccc1CCC(=O)NCCCn1ccc2ccccc21	-10	-2	-7.8	nt	9%	2.8%	2.9
CC(=O)Nc1cc(C(C)C)c(O)c(C(C)C)c1	-3	4	-0.4	-2.4%	16%	0.9%	0.8
Cc1nc2sc(C(c3cccs3)N3CCC4(CC3)OCCO4)c(O)n2n1 (stereo not drawn)	7	-4	3.8	-2.4%	19%	-0.6%[38.3 µM]	0.3
Cc1cc(F)ccc1S(=O)(=O)N1CCCOC1CNC(=O)C(=O)NCCc1ccccc1 (stereo not drawn)	-9	5	nt	0.8%	7%	-0.8%	0.0
CCOC(=O)c1[nH]ncc1CN1CCCC(C(=O)c2ccc(C(C)(C)C)cc2)C1 (stereo not drawn)	6	-21	2.9	-0.9%	17%	4.5%	1.6
C/C(=N\NC(=O)COc1ccc(C(C)(C)C)cc1)c1ccc2c(c1)OCCO2	-17	-4	2.4	-2.3%	17%	8.1%	-0.8
CC1(C)CC(=O)c2cc(NC(=O)c3ccccc3)c(=O)oc2C1	0	3	3.8	0.3%	9%	-0.1%	0.1
CC(=O)c1cccc(NC(=O)C(=O)c2cn(CC(=O)N3CCCCC3)c3ccccc23)c1	10	8	-0.8	0.6%	-6%	3.0%	-0.2
C/C(=N/NC(=O)CNC(=O)c1cccc(F)c1)c1ccc2c(c1)CCCC2	-11	20	0.8	nt	4%	1.6%	0.1
CCOc1ccccc1NC(=O)CCS(=O)(=O)c1cccc2nonc12	7	10	2.7	0.7%	12%	-2.2%	-0.9
COc1cc(C(=O)NNC(=S)NC(=O)c2ccc3c(c2)OCO3)cc(OC)c1OC	22	-9	4.0	nt	-1%	17%	-0.8
C/C(=N\n1cnnc1)c1ccccc1	11	-2	1.0	nt	1%	-1.0%	0.6
O=C(NCc1cc2ccccc2[nH]1)C1CCC(=O)N(CC2CCCCC2)C1 (stereo not drawn)	nt	-2	nt	-10.0%	nt	1.8%	-0.1
CCOc1ncccc1C(=O)NCC1COc2ccccc2O1 (stereo not drawn)	7	-8	-0.7	-0.1%	?	1.8%	0.3
CCOC(=O)C1=C(COC(=O)C2(C)CC2(Cl)Cl)NC(=O)NC1c1ccc(OC)cc1 (stereo not drawn)	-16	-4	0.2	nt	8%	1.9%	-0.4
(continued)
SMILES	TRPV1 potentiator	TRPML1 inh	Menin-MLL FL inh	ClpP mod	Sfp PPTase inh	PINK1 expr mod	TRPML1 ag
COc1cccc(C(=O)Nc2ccc3c(c2)CCCN3C(=O)c2cccs2)c1OC	2	16&-13	nt	-1.5%&-0.9%	-12%	-1.0%&0.6%	1.8&1.7
Cc1ccc(NNC(=O)C(=O)N2CCCCC2)cc1	0	9	3.7	-2.3%	8%	1.1%	-0.1
COc1cc(C(=O)OCC(=O)NC(=O)NC2CCCCC2)cc(Cl)c1OC	17	-4	nt	-1.2%	nt	4.8%	0.6
COc1ccccc1OCC(=O)NNC(=O)c1c(-c2ccccc2Cl)noc1C	6	40	-3.3	nt	5%	-0.3%	1.7
Cc1cc(C)c(NC(=S)N(CCCN2CCOCC2)Cc2cccnc2)c(C)c1	8	-10	-0.3	nt	?	0.1%	0.7
Cc1nn(Cc2ccccc2)c(C)c1/C=N/NC(=O)c1ccncc1	-6	26	0.0	0.8%	17%	0.3%	1.9
Cc1cc(C)c2sc(N(CCN(C)C)C(=O)c3c(F)cccc3F)nc2c1	-3	-13	-3.5	nt	-22%	?	0.3
CCOC(=O)c1ccc(NC(=O)c2cn(-c3ccccc3)nc2-c2ccncc2)cc1	12	-8	-0.7	209%	1%	2.3%	-0.8
CC(C)NC(=O)CN1C(=O)CCn2nc(-c3cn(C)c4ccccc34)cc21	nt	8	nt	-18%	nt	5.1%	0.1
CN(CC(=O)Nc1cc(S(=O)(=O)N2CCOCC2)ccc1Cl)C1CCS(=O)(=O)C1 (stereo not drawn)	5	1	-0.6	nt	13%	-1.3%	1.7
Cc1cccc(NC(=O)CSc2ccc(-c3ccco3)nn2)c1C	21	3	6.0	1.3%	22µM*	5.0%	0.1
CCc1c(C)c2cc(Cl)c(O)c(CN(C)C)c2oc1=O	-4	0	4.1	-10%	8%	-1.4%[38.3 µM]	0.1
COC(=O)C(NC(=O)c1ccco1)(Nc1nc(C)cs1)C(F)(F)F (stereo not drawn)	-14	42	4.2	-3.9%	7%	-0.8%	0.1
COc1cccc(NC(=O)/C(C#N)=C/c2c(C)n(Cc3ccc(Cl)cc3)c3ccccc23)c1	nt	31	nt	-1.3%	nt	1.0%	1.0
CCOC(=O)CNC(=O)N1CCCC(Cc2ccccc2)(C(=O)OCC)C1 (stereo not drawn)	nt	-3	nt	-3.8%	nt	-2.2%	0.5
COc1ccc(CCNC(=O)c2ccc3c(c2)N(Cc2cccc(C)c2)C(=O)c2ccccc2S3(=O)=O)cc1OC	nt	5	nt	-2.8%	nt	1.4%	1.6
O=C(Nc1cccc2cccnc12)c1ccc(F)cc1	20	11&9	nt	0.2%	nt	0.2%&1.8%	4.0&0.9
Cc1nc(COc2ccc(C(=O)NCc3ccccc3CN3CCCCC3)cc2)cs1	15	15	nt	2.2%	nt	1.0%	1.0
CC(C(=O)NC1CCCC1)N(C(=O)CS(=O)CC(=O)Nc1ccc(F)cc1)c1ccc2c(c1)OCCO2 (stereo not drawn)	1	-11	2.9	2.3%	-11%	2.0%[38.3 µM]	-0.6
CC(C)(CN1CCOCC1)NS(=O)(=O)c1ccccc1	1	-3	-2.2	0.2%	7%	-0.8%	-0.6
CCN(CC)C(=O)C1=C(C)NC(=S)NC1c1cccs1 (stereo not drawn)	3	-11	-2.7	1.0%	0%	1.5%	0.1
CCOC(=O)c1ccccc1NC(=O)COC(=O)c1ccc(C)c(S(=O)(=O)N2CCOCC2)c1	-6	-1	3.5	-4.6%	?	8.9%	1.3
CCOC(=O)c1ccc(Nc2ncccc2[N+](=O)[O-])cc1	-6	26	-0.3	-1.0%	-3%	3.7%	-0.3
CCNc1cc2c(cc1O)CCC1C2CCC2(C)C(O)CCC12 (stereo not drawn)	nt	5	nt	-2.9%	nt	?	-0.2
O=C(CCSc1ccccc1)NCCSc1ccccn1	1	-6	3.8	-0.9%	4%	-1.6%	-0.2
(further entries)
SMILES	TRPV1 potentiator	TRPML1 inh	Menin-MLL FL inh	ClpP mod	Sfp PPTase inh	PINK1 expr mod	TRPML1 ag
Cc1ccc2[nH]c(=O)c(CN(Cc3ccco3)C(=O)c3cccs3)cc2c1	10	nt	3.1	nt	7%	nt	nt
O=C(NCC(c1ccco1)N1CCCCC1)c1cccc(S(=O)(=O)Nc2ccccc2Cl)c1 (stereo not drawn)	23	-7	nt	-3.6%	5%	-0.1%	0.3
CC(=O)Nc1ccc(NC(=O)CN2C(=O)COc3ccc(S(=O)(=O)N4CCCCC4)cc32)cc1	-9	0	nt	-0.7%	23%	0.0%	-0.5
COc1ccc(CNC(=S)NC2CCCCC2)cc1	-14	31	-0.6	0.2%	1%	-1.0%	2.8
O=C(CCn1nc(-c2ccccc2)ccc1=O)N1CCN(c2ccccn2)CC1	nt	-2	nt	-5.8%	-2%	5.1%	0.5
NC(=O)c1cnn2c(-c3ccc(Cl)cc3Cl)ccnc12	21	-18	-10	nt	11%	-1.0%	0.2
Cc1oc(-c2ccccc2F)nc1CS(=O)CC(=O)NC1CCCC1 (stereo not drawn)	9	20	-1.1	-7.1%	-3%	-0.5%	-0.8
CCOC(=O)C1CCN(C(=S)NC2CCCC2)CC1	0	-2	-0.8	nt	11%	0.4%	0.1
CC(=O)Nc1ccc2c(c1)Cc1c-2cc(Cl)c(NC(C)=O)c1Cl	nt	-10	nt	-0.1%	nt	7.7%	-0.3
Cc1cc(C)cc(NC(=O)CCCCCN2C(=O)[C@@H]3Cc4ccccc4CN3C2=O)c1	14	-4	nt	2.4%	14%	0.3%	3.4
CN(C(=O)c1cccc(N2C(=O)C3C4C=CC(C4)C3C2=O)c1)C1CCCCC1 (stereo not drawn)	-1	4	-2.4	2.1%	16%	4.1%	-0.9
Fc1ccc(NC(=S)SCc2ccc3c(c2)OCO3)cc1F	nt	4	nt	-4.3%	nt	?	1.7
COCC(=O)NC1(c2nnnn2CCOC(=O)Nc2ccc(Cl)cc2)CCCCC1	3	1	1.6	nt	19%	0.6%	0.0
CC(=O)OCC(NC(=O)C(C)NC(=O)OC(C)(C)C)C1OC(n2cc(C)c(=O)[nH]c2=O)C(OC(C)=O)C1OC(C)=O (stereo not drawn)	nt	2	0.8	nt	-12%	nt	0.5
